Screening data (PubChem BioAssay)
WNV NS2B-NS3 inh: WNV NS2B-NS3 proteinase inhibition; WNV NS2B-NS3 protease, fluorogenic substrate Ex360/Em465; hits give low values; z-score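 (tested at a level between 10 and 100 µM)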; hit rate 0.18% among 65,000;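 active = z-score at -3 or under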;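 note: score is relative to mean and spread of the compound wells of a plate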
Target sequence (P06935 1371-1501 limits assumed): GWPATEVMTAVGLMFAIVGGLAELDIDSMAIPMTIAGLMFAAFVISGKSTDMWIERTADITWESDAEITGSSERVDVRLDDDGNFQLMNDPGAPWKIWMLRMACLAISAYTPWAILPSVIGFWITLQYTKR
Target sequence (P06935 1502-1679 limits assumed): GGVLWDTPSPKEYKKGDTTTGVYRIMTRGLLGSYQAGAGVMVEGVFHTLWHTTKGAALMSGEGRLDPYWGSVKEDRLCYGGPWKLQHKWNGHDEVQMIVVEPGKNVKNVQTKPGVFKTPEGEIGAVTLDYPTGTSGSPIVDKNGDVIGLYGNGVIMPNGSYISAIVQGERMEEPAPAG
Hsc70: Hsc70 inhibitors, probe displacement, primary screen, biochemical, fluorescence polarization (AID 568); Hsc70 fluorescence polarization, probe displacement; higher % means a stronger effect; strong numbers were not always called active; displacement, % at 20 µM, or IC50 in µM where a hit was titrated; 83,000 tested, under 10 active;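 active = displacement above 50% without optical interference and an IC50 on retest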;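 note: ATPase domain with a fluorescein-tagged ATP probe; 0% = vehicle and 100% = excess ADP; read after one hour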
MT1-MMP reporter: inhibitors of MT1-MMP promoter transcription, cell-based, luciferase reporter, luminescence (AID 618); MT1-MMP promoter luciferase reporter cells, luminescence; calls from a first round at 10 µM; hits with a dose series show EC50 in µM; hit rate 0.62% among 87,000;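 active = over half of the reporter light lost at 10 µM or EC50 under 50 µM; inactive = the rest and hits that failed the dose series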;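 note: actives suppress MT1-MMP promoter-driven transcription so potencies describe inhibitors; HT1080 fibrosarcoma cells; overnight exposure; toxic or luciferase-blocking compounds were not removed from the actives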
* = called active by the depositor; i = inactive; · = not tested or not shown; + = active, no number.

SMILES	WNV NS2B-NS3 inh	Hsc70	MT1-MMP reporter
COc1cccc(C2C(C(N)=O)=C(C)Nc3nc(-c4cccc(Cl)c4)nn32)c1 (stereo not given)	1.8	-3.0%	i
Cc1ccc(NC(C)c2cc(Cl)ccc2O)cc1 (stereo not given)	·	-4.8%	i
O=C(Nc1ccc(NC(=O)C2CCCCC2)cn1)c1ccco1	1.4	3.2%	+
Cc1ccc(Cn2ccc(NC(=O)c3noc4c3CCCC4)n2)cc1	-0.61	-5.5%	i
CCc1nnc(SCc2ccc(C(=O)OC)o2)n1N	-0.89	-1.3%	i
Cc1ccc(C)c(N2CCN(C(=O)CCNC(=O)Cn3ccc4ccccc4c3=O)CC2)c1	0.15	3.0%	i
Fc1cccc2sc(Nc3nnc(-c4ccco4)o3)nc12	0.42	-2.9%	i
O=C(Nc1ccccc1)N1CCCC(c2nc(-c3ccc(F)cc3)no2)C1 (stereo not given)	·	0.8%	i
CCSc1nnc(NC(=O)c2cc(C)oc2C)s1	-0.49	-6.4%	i
O=C(Cn1cc2c(n1)CCCC2)Nc1ccccc1Cl	0.37	1.0%	i
COc1cccc(C2C(C#N)=C(N)Oc3cc(C)[nH]c(=O)c32)c1OC (stereo not given)	-0.67	-2.4%	i
C=CCn1c(Cc2cccs2)nnc1SCC(=O)Nc1ccc(C(=O)OCC)cc1	1.2	-3.1%	i
CCOc1ccc2nc(SCC(=O)Nc3ccc4c(c3)OCCO4)[nH]c2c1	·	0.5%	i
O=c1c(-c2ccc(Cl)cc2)[n+]([O-])c2ccccc2n1O	-0.53	0.8%	i
Cc1cc(NC(=O)CSc2ncnc3sc4c(c23)CCC(C)C4)no1 (stereo not given)	-0.85	-11%	i
Cc1cc(NC(=O)C2CCCCC2)n(-c2nc3ccccc3[nH]2)n1	·	4.5%	i
O=C(CCCCCn1c(=O)[nH]c2ccsc2c1=O)NCc1cccs1	-0.29	1.0%	i
C=CCNC(=O)CCCc1ccccc1	1.1	4.5%	i
COc1ccc(N2C(=O)C3CCCN3C2c2ccc(C)cc2)cc1 (stereo not given)	0.06	0.4%	i
CCOc1ccccc1COC(=O)c1cccc(-n2cnnn2)c1	0.17	0.4%	i
CCCn1c(-c2cccs2)nc2ccccc21	0.51	2.8%	i
CCN(CC)C(=O)Nc1ccccc1C	·	-1.1%	i
Cc1c(C(=O)NCc2cccs2)oc2ccccc12	0.52	-7.4%	i
O=C(COc1ccccc1)NCC(c1cccs1)N1CCOCC1 (stereo not given)	-0.11	1.2%	i
O=C(CSc1nnc(CNc2ccc(F)cc2)n1Cc1ccco1)N1CCOCC1	·	3.5%	i
Cc1cc(C)cc(NC(=O)CN2CCN(CCN=CC3=C(O)CC(C)(C)CC3=O)CC2)c1	·	6.9%	i
CCCCCn1c(SCCN2CCOCC2)nc2c1c(=O)[nH]c(=O)n2C	-1.6	-5.7%	i
CC(C)OC(=O)CCc1nc2ccccc2[nH]c1=O	-1	7.0%	i
Cc1onc(-c2ccccc2Cl)c1C(=O)OCN1C(=O)c2ccccc2C1=O	-0.87	0.1%	i
COc1ccc(N2CCN(Cc3oc(CO)cc(=O)c3O)CC2)cc1	·	1.5%	i
Cc1ccccc1NC(=S)N(C)Cc1cccs1	·	4.3%	i
COc1ccc2c(c1)OC1=C(C(=O)CCC1)C2C1=C(O)CCCC1=O (stereo not given)	·	1.7%	i
CCCC(=O)Nc1ncnc2c1ncn2[C@@H]1O[C@@H]2COP(=O)(O)O[C@H]2[C@H]1OC(=O)CCC	0.21	3.0%	i
COC(=O)c1ccccc1NC(=O)C1CC(c2ccc(F)cc2)=NO1 (stereo not given)	1.7	0.8%	i
COc1ccc(CCNC(=O)c2cc(-c3ccc(C)c(C)c3O)n[nH]2)cc1OC	·	2.5%	i
COc1ccccc1C(=O)Nc1ccccc1C(=O)N1CCCC1	1.2	-0.1%	i
CN(C(=O)COc1cc(=O)n(C)c2ccccc12)c1cccc(Cl)c1	0.07	2.9%	i
Cn1c(=O)[nH]c(=O)c2c1nc(N1CCOCC1)n2CCN1CCOCC1	0.73	-2.9%	i
COC(=O)C1=C(C(C)=O)C(c2ccc(C)cc2)n2nnnc2N1 (stereo not given)	0.16	-2.1%	i
Cc1nn(Cc2ccc(Br)cc2)c(C)c1NC(=O)c1nn(C)cc1Cl	0.21	5.1%	i
c1ccc(-n2nnc3c(N4CCOCC4)ncnc32)cc1	0.06	-2.0%	+
O=C(COC(=O)c1ccc[nH]c1=O)NC1CCCC1	-1.8	-8.6%	i
COC(=O)C1(C)NC(=O)c2ccccc2N1 (stereo not given)	-0.2	0.7%	i
CN(C)c1nc(N)nc(CSc2ncc(Cl)cc2Cl)n1	-0.65	1.7%	i
COCCNC(=O)C(c1cccs1)N(C(=O)Cn1nnc2ccccc21)c1ccccc1 (stereo not given)	0.59	5.9%	i
Cc1nnc(N(C)C(=O)Cc2ccc3c(c2)OCO3)s1	1.2	-4.9%	i
Cn1c(=O)c2c(nc(CN3CCN(C(=O)c4ccco4)CC3)n2Cc2ccc(Cl)cc2)n(C)c1=O	0.67	-2.9%	i
COc1ccccc1CCNC(=O)CSc1nc(-c2ccco2)cc(C(F)(F)F)n1	1.7	-1.2%	i
CCC1(NC(C)=O)CC2CC1CC2NC(C)=O (stereo not given)	-0.2	-4.7%	i
c1ccc2nc(-c3nc4ccccc4o3)ccc2c1	1.7	-20%	+
CCC(=O)Nc1ccc(C(=O)Nc2ccc3c(c2)C(=O)N(CC2CCCO2)C3=O)cc1 (stereo not given)	-1.3	-0.3%	i
CC1CCCN(C(=O)N2c3ccccc3Sc3ccccc32)C1 (stereo not given)	·	6.4%	i
COc1ccccc1S(=O)Cc1ccc(C(=O)NC2CCCC2)o1 (stereo not given)	2.9	-2.0%	i
O=C(Cn1nnc(-c2ccc(S(=O)(=O)N3CCCC3)cc2)n1)NCC1CCCO1 (stereo not given)	-0.48	0.8%	i
CCN(CC)S(=O)(=O)c1ccc(NC(=O)C2COc3ccccc3O2)cc1 (stereo not given)	-0.71	-2.9%	i
COc1cccc(-c2cc(C(F)(F)F)n3nc(N)nc3n2)c1	0.02	-3.0%	i
O=C(c1ccco1)N1CCN(C(=O)C(c2ccccc2)c2ccccc2)CC1	·	4.4%	i
Cc1ccccc1-c1nnn(CC(=O)c2ccc(S(=O)(=O)N3CCCC3)cc2)n1	-1.1	0.4%	i
O=C(c1cc(-c2cccc(O)c2)on1)N1CCN(C(c2ccccc2)c2ccccc2)CC1	-0.19	-1.8%	i
O=C(O)C1CC(c2cccc(Br)c2)=NO1 (stereo not given)	-0.94	-0.6%	i

Following part.
SMILES	WNV NS2B-NS3 inh	Hsc70	MT1-MMP reporter
Cc1cccc(OCc2nnc(SCc3nc4ccccc4c(=O)[nH]3)o2)c1	0.24	-3.7%	i
O=C(Cn1nc(-c2ccccc2)ccc1=O)Nc1ccc(N2CCN(C(=O)c3ccccc3)CC2)cc1	0.09	0.6%	i
CCN1C(=O)/C(=C/N2CCc3ccccc32)SC1=S	-0.14	-45%	i
Cc1cc(Cl)cc(C)c1OCCCCn1ccnc1	-0.29	-3.0%	i
CC1(C)CC(=O)c2cnc(NC(=O)CSc3nc4ccccc4o3)nc2C1	0.05	9.0%	i
CCCCn1c(SCN2C(=O)c3ccccc3C2=O)nc2cc(S(N)(=O)=O)ccc21	0.47	4.7%	i
CC1=CC(C)=Nc2ccc(C)cc2N1	0.93	-4.0%	i
CCc1ccccc1N(CC(=O)NCc1ccco1)C(=O)c1snc(C(N)=O)c1N	0.99	-2.0%	i
O=C(C1CCCN(S(=O)(=O)c2ccc(F)cc2)C1)N1CCCC1 (stereo not given)	0.25	2.8%	i
O=C(Nc1cnn(Cc2ccc(Cl)cc2)c1)C1CCCC1	-0.24	6.9%	i
CCOc1ccc(NC(=O)c2nccnc2CO)cc1	-0.06	6.5%	i
O=C(O)CCc1nc2ccccc2n(CCc2ccccc2)c1=O	-1.8	-3.6%	i
CC(=O)Nc1ccc(S(=O)(=O)Nc2nnc(C(C)C)s2)cc1	·	-1.6%	i
Cc1cccc(-c2nc3c(c(SCC(=O)N(C)C)n2)CCCC3)c1	·	3.3%	i
Cc1cc(C)n(CCc2nc3c4ccccc4nc(SCc4ccc(C#N)cc4)n3n2)n1	0.59	-5.9%	i
Cc1ccc(C2(C)NC(=O)N(CC(=O)Nc3ccc4c(c3)OCO4)C2=O)cc1 (stereo not given)	0.33	1.0%	i
S=c1[nH]nc(-c2ccccc2)o1	·	-3.1%	i
CCC(C)(C)n1nnnc1C(c1ccc(C)cc1)N1CCN(Cc2cccnc2)CC1 (stereo not given)	-0.27	-2.3%	i
CCOC(=O)C1=C(C)OC(N)=C(C#N)C1c1ccsc1 (stereo not given)	0.69	3.3%	i
CCC(C)(C(=O)NC1CCCCC1)N(C(=O)c1ccccn1)c1ccccc1 (stereo not given)	·	63%	i
CCCC(C)NC(=O)c1ccc(F)cc1 (stereo not given)	-0.56	3.8%	i
CCCc1cc(=O)oc2cc3occ(C)c3cc12	0.83	1.4%	i
O=C(O)c1ccccc1C(=O)N1CC=C(c2ccccc2)CC1	1.1	3.0%	i
Cc1nc(-c2cccc(NS(C)(=O)=O)c2)cs1	·	-2.7%	i
CCN1CCN(C(=O)c2ccccc2N(Cc2ccccc2)S(C)(=O)=O)CC1	-0.72	2.2%	i
CC(C)C(NC(=O)C1CCCCC1)C(=O)N1CCN(c2ccc(F)cc2)CC1 (stereo not given)	0.37	-9.5%	i
COc1ccccc1NC(=O)c1ccccc1NS(C)(=O)=O	-0.88	11%	i
O=C1c2ccccc2C(Nc2ccc(Cl)cn2)N1c1cccnc1 (stereo not given)	0.79	-0.3%	i
COC(=O)c1ccc2c(c1)N(Cc1nc(-c3ccc(Cl)cc3)oc1C)C(=O)C1CCCN21 (stereo not given)	0.57	-67%	i
COC(=O)Nc1sc2c(c1C(N)=O)CCCCCC2	-0.01	4.9%	i
COc1ccccc1NC(=O)Cn1nc(C(F)(F)F)c2c1CCCC2	-1.6	-0.9%	i
OCCn1c(C(F)(F)F)nc2ccccc21	·	5.2%	i
COn1c(SCc2ccc(C)cc2C)nc2ccccc2c1=O	·	4.4%	i
O=C(CCN1CCN(c2ccccc2F)CC1)c1ccc(Br)cc1	-0.93	5.2%	i
Cc1cc(C)c(C#N)c(OCC(=O)c2ccc(Br)cc2)n1	·	2.7%	i
CC(=O)Nc1ccc(S(=O)(=O)NC2(C(F)(F)F)C(=O)Nc3c2c(=O)n(C)c(=O)n3C)cc1 (stereo not given)	·	1.5%	i
Cc1ccccc1CSc1nc2c(c(=O)[nH]1)CCCC2	·	0.5%	i
Cn1c(C(=O)N2CCCc3ccccc32)cc2c(=O)n3ccccc3nc21	-0.39	1.4%	i
O=C(NCC1COc2ccccc2O1)C1CCCN(S(=O)(=O)c2cccc3cccnc23)C1 (stereo not given)	-0.63	0.7%	i
CC(C)CCn1c(=O)c2ccccc2n2c(CN(C)Cc3ccccc3)nnc12	0.71	4.6%	i
O=C(COc1ccc(S(=O)(=O)NC2CCCC2)cc1)N1CCCCCC1	1.9	-5.5%	i
CCCc1[nH]nc2c1C(c1cccc(OC(=O)c3ccco3)c1)C(C#N)=C(N)O2 (stereo not given)	0.62	3.6%	i
O=C(c1cc(S(=O)(=O)N2CCCCC2)c(Cl)cc1N1CCOCC1)N1CCOCC1	-1.3	-3.3%	i
CCOc1ccc(OCC)c(NC(=O)CN(c2ccc(C)cc2)S(=O)(=O)c2c(C)noc2C)c1	1.2	-1.2%	i
Cc1cccc(C)c1NC(=O)Cn1nnc(-c2ccc(N3CCOCC3)cc2)n1	0.49	-4.1%	i

In the list so far, 13 have a furan ring, fused or not:
SMILES	WNV NS2B-NS3 inh	Hsc70	MT1-MMP reporter
O=C(Nc1ccc(NC(=O)C2CCCCC2)cn1)c1ccco1	1.4	3.2%	+
CCc1nnc(SCc2ccc(C(=O)OC)o2)n1N	-0.89	-1.3%	i
Fc1cccc2sc(Nc3nnc(-c4ccco4)o3)nc12	0.42	-2.9%	i
CCSc1nnc(NC(=O)c2cc(C)oc2C)s1	-0.49	-6.4%	i
Cc1c(C(=O)NCc2cccs2)oc2ccccc12	0.52	-7.4%	i
O=C(CSc1nnc(CNc2ccc(F)cc2)n1Cc1ccco1)N1CCOCC1	·	3.5%	i
Cn1c(=O)c2c(nc(CN3CCN(C(=O)c4ccco4)CC3)n2Cc2ccc(Cl)cc2)n(C)c1=O	0.67	-2.9%	i
COc1ccccc1CCNC(=O)CSc1nc(-c2ccco2)cc(C(F)(F)F)n1	1.7	-1.2%	i
COc1ccccc1S(=O)Cc1ccc(C(=O)NC2CCCC2)o1 (stereo not given)	2.9	-2.0%	i
O=C(c1ccco1)N1CCN(C(=O)C(c2ccccc2)c2ccccc2)CC1	·	4.4%	i
CCc1ccccc1N(CC(=O)NCc1ccco1)C(=O)c1snc(C(N)=O)c1N	0.99	-2.0%	i
CCCc1cc(=O)oc2cc3occ(C)c3cc12	0.83	1.4%	i
CCCc1[nH]nc2c1C(c1cccc(OC(=O)c3ccco3)c1)C(C#N)=C(N)O2 (stereo not given)	0.62	3.6%	i

The listing continues.
SMILES	WNV NS2B-NS3 inh	Hsc70	MT1-MMP reporter
CCOC(=O)C(NC(=O)c1ccccc1)(N1CCCC1=O)C(F)(F)F (stereo not given)	0.13	8.0%	i
Cn1c(=O)oc2ccc(C(=O)CSc3nnnn3-c3ccccc3)cc21	-0.49	-3.6%	i
CCCCNC(=O)COC(=O)c1cc(F)c(F)cc1Cl	·	10%	i
O=C(CCC(=O)N1CCN(C2CCCCC2)CC1)Nc1nnc(C(F)(F)F)s1	-0.02	4.4%	i
